# gsp antagonist: gsp mutant antagonism; gsp-mutant cells, cAMP HTRF, 30 min; control for the full effect not named in the record; Potency, µM (titrated, usually from 76.9 µM), for the others: at the highest dose activity change, negative = inhibition, actives largely listed as inhibitors; 0.4% of 340,000 active; AID 624288; active = falling curve of any shape with a large fitted effect; inconclusive = falling curve, mostly with a smaller effect; inactive = flat or rising curve; cell line not stated here;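 also: intracellular cAMP measured with PDE inhibitor Ro 20-1724 present during compound exposure; potency is read from the fitted curve at half-maximal effect; % is scaled to controls: 0 for no effect and ±100 for the full control effect; nearly all actives have a fitted effect of over 65% in size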
#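 HTRF cAMP read-out (cAMP-d2 plus anti-cAMP antibody-K in lysis buffer, 30 min RT). Before lysis, cells are exposed to compounds with […] for 30 min at 37C in DPBS containing Ca/Mg, BSA and Tween 20.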
# gsp ag: activates gsp, the McCune-Albright syndrome mutation; gsp mutant cells, cAMP HTRF, 30 min; control for the full effect not named in the record; Potency, µM (doses to about 76.9 µM), for inactives: at the top dose activation (cAMP increase), usual class: activators; 0.13% of 340,000 active; AID 624287; active = well fitted activation curve with a large enough effect; inconclusive = small, poorly fitted or top-dose-only effect, or another doubt; inactive = no such curve, though single readings can be large or run the other way; cell line not stated here;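 also: phosphodiesterase inhibitor Ro 20-1724 added with compounds to block cAMP breakdown; potency is read from the fitted curve at half-maximal effect; nearly all actives have a fitted effect of over 60% in size; about a fifth of the inactives were tested at one dose only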
#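 Cells stably selected in G418 were plated at 2000/well, grown 16-24 hr, then given compounds in DMSO with the PDE inhibitor […] (300 uM solution added) for 30 min at 37C; cAMP was read by HTRF.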
# TRPML1 inh: human mucolipin-1 channel inhibition. Q9GZU1. TRPML1-inducible cells, Ca2+ dye fluorescence, FDSS; stronger effect = lower value; inhibition of EC80 agonist-evoked calcium signal. activity change, negative = inhibition, % (no concentration beside the values). 0.02% of 390,000 active; in the data active means activity change below about -50%; inconclusive means about -30% to -50%; inactive means above about -30%;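 also: stimulus is agonist 54-4 at its EC80 concentration; % is scaled to controls: 0 for no effect and ±100 for the full control effect; compound concentration not given in the record; the text of the record puts the active cut at -80%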
# Target sequence (Q9GZU1 whole entry, looked up): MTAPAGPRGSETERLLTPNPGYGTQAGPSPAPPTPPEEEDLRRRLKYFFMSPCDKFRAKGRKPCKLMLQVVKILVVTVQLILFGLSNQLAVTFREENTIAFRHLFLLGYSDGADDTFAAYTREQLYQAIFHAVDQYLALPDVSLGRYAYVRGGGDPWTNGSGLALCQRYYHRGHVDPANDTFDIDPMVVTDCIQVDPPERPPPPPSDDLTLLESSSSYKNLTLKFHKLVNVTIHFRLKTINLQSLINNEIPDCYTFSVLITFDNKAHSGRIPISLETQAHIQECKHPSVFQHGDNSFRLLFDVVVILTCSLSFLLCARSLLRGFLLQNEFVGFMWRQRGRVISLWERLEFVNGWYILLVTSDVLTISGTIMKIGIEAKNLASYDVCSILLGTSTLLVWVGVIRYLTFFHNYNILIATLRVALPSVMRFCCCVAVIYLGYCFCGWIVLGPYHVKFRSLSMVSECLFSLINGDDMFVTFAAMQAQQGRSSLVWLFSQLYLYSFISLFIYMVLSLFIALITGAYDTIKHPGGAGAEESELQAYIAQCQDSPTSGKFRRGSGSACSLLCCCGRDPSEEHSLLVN
#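 Calcium fluorescence in TRPML1-DL cells induced overnight with Tet: a 110 s read after compound pin addition, then a 110 s antagonist read after challenge with 54-4 at 4 uM final (EC80).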
# TRPML1 ag: agonists of human TRPML1 channel. activation, % (concentration not given with the values). Q9GZU1. TRPML1-expressing cells, Ca2+ dye fluorescence, FDSS; host cell line not named in the record; reference of the full effect not given here. 0.12% of 410,000 active; in the data active = activation above about 50%; inconclusive = about 30% to 50%; inactive = below about 30%; also: 0% is about no effect; the text of the record puts the active cut at 80%
#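 TRPML1-DL cells, Tet-induced overnight (~16 h, 37 degrees C), loaded 45-90 min at room temperature with Ca8 no-wash calcium dye plus quencher. FDSS fluorescence: 10 s baseline, compound pin-transfer, 110 s agonist read, then EC80 54-4 (4uM final) and 110 s antagonist read.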
# ClpP mod: qHTS Assay for Activators of ClpP; Potency, µM (doses to about 57.5 µM), without a hit: at the top dose activity change, negative = active; ATP-dependent Clp protease proteolytic subunit (Bacillus subtilis (strain 168)), P80244; purified B. subtilis ClpP, FRET peptide cleavage, 20 min; 1.9% of 340,000 active; active = well fitted falling curve with a large enough effect; inconclusive = small, poorly fitted or top-dose-only effect; inactive = no such curve, though single readings can be large or run the other way; also: potency is read from the fitted curve at half-maximal effect; the source files actives as falling curves though it sought activators and does not explain the sign; nearly all actives have a fitted effect of over 65% in size; many hits overshoot -100%
# Target sequence (P80244 whole entry, looked up): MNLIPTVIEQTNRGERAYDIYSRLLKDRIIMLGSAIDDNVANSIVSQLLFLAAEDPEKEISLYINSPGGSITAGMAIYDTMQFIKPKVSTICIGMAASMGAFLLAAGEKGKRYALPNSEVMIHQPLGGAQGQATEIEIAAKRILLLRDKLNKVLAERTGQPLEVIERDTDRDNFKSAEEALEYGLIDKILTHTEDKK
#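 Purified B. subtilis ClpP, 10 microg/mL final in Tris/HCl pH8 with KCl, BSA, glycerol and Tween-20, cleaved an Abz/nitrotyrosine-quenched decapeptide. Fluorescence (ex 320, em 430) was read at 0 and 20 min at room temperature. Delta was normalized to 5.8 microM ADEP and DMSO/no-enzyme controls.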
# Menin MLL FP FL: inhibitors of human menin-MLL interaction, wild-type MLL peptide; 290,000 tested, under 10 active; FP activity change, % at 61.4 µM; AID 1766; Fluorescence polarization, fluorescein-MLL peptide displacement from menin; inconclusive = falling polarisation curve, or a change in total fluorescence; inactive = total fluorescence flat and polarisation flat or rising; no compound was filed as active; the % refers to the polarisation; negative = inhibition;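 also: % of control where 0% means no effect; inhibitors lower the polarisation; unlabelled MLL peptide was the positive control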
# Active calls of the source: *; ? = inconclusive; . = no result given; [ ] = dose if it differs, or a comment.
SMILES,gsp antagonist,gsp ag,TRPML1 inh,TRPML1 ag,ClpP mod,Menin MLL FP FL
O=C(CN1CCOCC1)N1CCCc2c1c(=O)oc1ccc(OCc3ccccc3)cc21,-23.1%,-18.8%,-3.4,-0.3,?,3.8
O=C(NC(O)C(=O)c1ccccc1)c1cccs1 (configuration not stated),2.3%,17.5%,-20.1,0.0,1.1%,-0.1
CCn1cc(C(=O)NN)c(=O)c2cc(F)c(N3CCCCC3)cc21,-10.6%,-0.2%,24.0,0.9,-3.9%,2.7
Cc1cccc(C(=O)n2c(=S)nc3cc(C)ccn32)c1,?,5.5%,-4.7,-0.3,.,-0.4
Cc1ccc(/C=N/NC(=O)c2ccccc2OCc2cccc(Br)c2)o1,-47.1%,-9.5%[15.4 µM],-7.1,2.2,.,0.1
CC1(C)OC(=O)C2=C(CC(c3ccccc3)OC2CCc2ccccc2)O1 (configuration not stated),.,-70.3%[inhibitor],?,0.7,2.8%,.
COc1ccc(NS(=O)(=O)c2ccc3[nH]c(=O)[nH]c3c2)cc1,-9.6%,-25.0%,8.3,0.5,0.0%,7.2
O=C(O)c1ccc(NS(=O)(=O)c2ccc3c(c2)C2C=CCC2C(c2ccccc2F)N3)cc1 (configuration not stated),-1.1%,7.8%,8.9,-0.4,.,?
CCC(=O)c1ccc(O)c(OC)c1,-9.6%,.,.,.,-4.3%,1.0
COc1ccc2nc(NC(=O)C3CC(=O)N(c4ccc5c(c4)OCCO5)C3)sc2c1 (configuration not stated),-12.4%,?,5.8,-0.2,-2.8%,.
CCN(CC(=O)Nc1cccc(OC)c1)C(=O)c1ccc(C)s1,8.2%,-41.8%[inhibitor],6.4,0.5,0.8%,1.1
CSc1nnc2c(n1)OC1(Nc3ccccc3-2)C(=O)Nc2ccccc21 (configuration not stated),0.5%,-64.6%[inhibitor],17.5,0.8,3.3%,-1.1
CCOC(=O)c1cccc(NC(=O)N2CCC(CN3CCc4ccccc4C3)CC2)c1,.,.,0.9,1.6,-7.9%,.
O=C(CSc1nc2ccccc2c(=O)n1CCCO)N1CCc2ccccc21,0.2%,-2.6%,0.3,1.1,-1.8%,-0.3
COc1cccc(S(=O)(=O)c2nc(C)c3c(n2)CCC3)c1,5.1%,?,-5.9,0.2,-0.5%,-0.8
O=C(CCN1C(=O)/C(=C/C=C/c2ccccc2)SC1=S)Nc1nccs1,3.8%,-14.3%,-3.6,0.8,-7.8%,7.2
CC12CCC(C(=O)N(c3ccccn3)c3ccccn3)(OC1=O)C2(C)C (configuration not stated),10.7%,3.6%,-10.4,-0.2,2.9%,-3.5
O=C(O)c1ccc2c(c1)[C@@H]1C=CC[C@@H]1[C@H](c1ccccn1)N2,-0.9%,8.3%,5.6,2.1,-0.4%,.
O=C(Nc1cccc2ccccc12)c1ccccc1,7.0%,-1.4%,-9.2,1.0,.,0.2
Nc1ccc(NC(=O)NC2CCCCC2)cc1[N+](=O)[O-],-5.1%,-23.3%,-11.0,-0.7,.,?
CCOc1ccc(NC2SC(=O)N(Cc3ccccc3)C2=O)cc1 (configuration not stated),.,.,2.9,-0.6,1.1%,.
Cc1ccc2cc(CCNC(=O)CC(C)(C)C)c(=O)[nH]c2c1C,4.5%,-1.4%,-14.0,0.3,-9.0%,-0.9
CCC(=O)N1CCc2cc(S(=O)(=O)NC(C(=O)Nc3ccc(C(C)=O)cc3)C(C)C)ccc21 (configuration not stated),.,.,-11.2,-1.5,1.3%,.
COc1ccc(N2C(=O)NC3CC2(C)Oc2ccc(Cl)cc23)cc1OC (configuration not stated),-2.5%,1.4%,30.4,0.5,0.2%,2.3
O=C(CSc1nnc(-c2cccs2)n1Cc1ccccc1)NCc1ccc2c(c1)OCO2,6.3%,-24.2%,-3.7,-0.9,-6.8%,1.8
Cc1nc(SCCOc2ccc(F)cc2)c2ccccc2n1,-4.5%,-28.0%,35.1,3.1,-3.6%,0.3
CCOC(=O)c1ccc(-n2c(CCC(=O)O)ccc2-c2ccc(F)cc2)cc1,-22.7%,-2.2%,48.8,0.9,-2.5%,11.0
CCCc1nc2ccc(Br)cn2c1Cc1ccccc1OC,.,.,-3.6,0.8,-10.7%,.
Nc1nnc(SCC(=O)NNC(=O)c2ccc(F)cc2)s1,-4.3%,?,-20.7,-1.2,-0.8%,.
O=S(=O)(c1ccc(F)c(F)c1)N1CCC2(CC1)OCCO2,4.3%,-43.3%[inhibitor],0.0,-0.3,-3.4%,.
O=C(c1cnn2c(C(F)F)cc(-c3ccccc3)nc12)N1CCN(Cc2ccc3c(c2)OCO3)CC1,-14.8%,-2.3%[15.4 µM],8.3,0.0,-2.6%,-1.0
CSc1nc(C)c(Cc2c(F)cccc2Cl)c(=O)[nH]1,-5.9%,10.9%,-6.6,-1.0,0.1%,1.6
O=C(CCc1c[nH]c2ccccc12)OCc1cccc([N+](=O)[O-])c1,-0.8%,6.7%[15.4 µM],0.9,0.4,.,1.3
Cc1ccccc1OCC(=O)NCC(=O)N/N=C/c1ccc(Br)o1,2.2%,-1.8%,-0.7,0.5,2.2%,-0.5
O=C(Cn1ccn(-c2ccc(F)c(F)c2)c(=O)c1=O)c1ccc(F)cc1,.,.,-4.4,0.0,-3.1%,.
CN(Cc1cccc(-n2cccn2)c1)C(=O)CCc1nnc(C2CCCCC2)o1,-16.0%,-28.6%,20.8,-0.8,0.1%,-2.6
Cc1cc(C(=O)CSc2nnc(-c3ccc(OC(F)F)cc3)o2)c(C)n1Cc1cccs1,2.5%,-2.4%,-23.5,0.4,0.3%,9.0
Cc1ccc(C(=O)n2nc(-c3ccccc3)nc2NCc2ccco2)cc1,-4.6%,-1.7%,7.8,3.2,-7.7%,2.7
CC1=C(c2ccc(C)cc2)S(=O)(=O)NC1=NCCCN1CCN(c2cc(C)ccc2C)CC1,.,.,16.5,1.0,-3.8%,.
CCOC(=O)c1c(NC(=O)COC(=O)c2cccc([N+](=O)[O-])c2)sc(C(=O)N(C)C)c1C,.,?,-6.9,-0.8,0.6%,.
CCOc1ccccc1N(CC(=O)NC(C)(C)C)C(=O)Cn1nnc(-c2ccc(C)o2)n1,-14.4%,-26.0%,5.8,1.7,0.2%,3.3
CCOC(=O)c1c(N)sc2c1CCCC2,-11.3%,-59.1%[inhibitor],-2.8,0.2,-7.2%,6.2
Cc1cccc(C(=O)NCCCNC(=O)c2ccco2)c1,12.3%,1.9%,12.3,0.3,.,-0.1
COC(=O)c1ccc(-n2cncn2)c([N+](=O)[O-])c1,6.7%,-11.2%[15.4 µM],0.2,-0.3,.,-8.9
COc1ccc(C(=O)OCC(=O)NC(=O)NC2CCCC2)c(OC)c1,-0.5%,-8.5%[15.4 µM],2.2,-0.8,-0.2%,-2.5
CC(Oc1ccccc1)C(=O)Nc1ccc(C(N)=O)cc1 (configuration not stated),4.8%,13.5%,-14.1,0.4,-11.5%,4.4
CCN(CC(=O)Nc1c(F)cccc1F)C(=O)CC1CCCC1,2.3%,9.4%[15.4 µM],3.4,0.8,.,.
CCc1ccc(NC(=O)CSc2nc3c([nH]c4ccccc43)c(=O)n2-c2ccc(C)cc2)cc1,.,.,4.9,2.1,-28.1%,.
COc1ccc(CCn2c(=O)c3cccnc3n(CC(=O)Nc3ccc(C)c(F)c3)c2=O)cc1OC,.,.,-1.6,0.4,-2.2%,.
CCC(C)c1ccc(O)c(N)c1 (configuration not stated),-1.0%,8.3%,-6.8,-0.6,-3.5%,1.5
COc1ccc(N2CC(C(=O)OCC(=O)Nc3cccc(C)c3C)CC2=O)cc1 (configuration not stated),.,-17.9%[15.4 µM],-16.4,-0.4,.,-5.7
COc1ccc(Nc2nc(-c3cccnc3)nc3ccccc23)cn1,6.9%,-1.5%[15.4 µM],14.8,-0.2,-0.4%,?
Cc1ccc(CSc2oc(-c3ccco3)nc2S(=O)(=O)c2ccc(Br)cc2)cc1,.,.,-22.6,3.0,-10.7%,.
CCN(C(=O)CSc1nc(N)cc(=O)[nH]1)C1CCS(=O)(=O)C1 (configuration not stated),17.8%,-7.1%,-3.1,0.2,-0.2%,.
CC1=C(C)C(OCCBr)N(c2cc(O)c(Cl)cc2F)C1=O (configuration not stated),-1.4%,-0.2%[15.4 µM],10.1,-0.6,.,2.3
CC(C)(C)OC(=O)NCCCCCc1nnc(SCc2ccccc2F)o1,-20.6%,-3.2%[15.4 µM],4.6,2.1,0.4%,3.1
COc1ccc(CC(=O)Nc2ccc(S(=O)(=O)Nc3cc(C)on3)cc2)cc1OC,3.5%,-26.0%,-6.2,-0.3,-1.2%,1.2
O=C(COc1ccc2ccccc2c1Br)NNC(=O)Nc1ccccc1,2.4%,?,4.5,-0.3,-0.2%,1.2
COc1ccc(CNC(=O)/C=C/[C@H]2O[C@@H](n3cc(C)c(=O)[nH]c3=O)C[C@@H]2O)cc1,.,.,-9.3,-0.5,-0.5%,.
CCN(CC)Cc1c(O)ccc2c(C)c(CC(=O)OC)c(=O)oc12,15.3%,8.4%,16.2,-0.4,-41.1%,-3.4

# New compounds follow.
SMILES,gsp antagonist,gsp ag,TRPML1 inh,TRPML1 ag,ClpP mod,Menin MLL FP FL
CC(C)OCCCn1c(SCc2cccc(Br)c2)nc2c(sc3ccccc32)c1=O,.,.,-7.4,0.2,-7.4%,.
COC(=O)N/N=C/c1ccc(OCCSc2ccc(Cl)cc2)c(OC)c1,-24.9%,-20.3%,32.1,1.6,-1.8%,0.4
Cc1nc2ccc(S(=O)(=O)N(C)CC(=O)NCc3ccc4c(c3)OCO4)cc2s1,2.8%,13.2%,-10.3,-0.5,-0.7%,-2.1
OCC1OC(c2ccc(OCc3ccccc3)cc2OCc2ccccc2)C(O)C1O (configuration not stated),.,-8.9%,9.7,-0.2,1.8%,.
O=C1Cc2cc(S(=O)(=O)Nc3ccc(N4CCOCC4)cc3)ccc2N1,-2.7%,-4.7%[15.4 µM],16.0,0.4,-1.5%,.
COc1ccccc1NS(=O)(=O)c1cc(C(=O)NCCC(C)C)ccc1F,-4.5%,?,8.1,21.8,.,-1.7
COc1ccc(N2Cc3cccc(C(=O)Nc4ccc(C)cc4)c3C2=O)cc1,.,.,0.2,0.8,-18.0%,.
COc1cccc(C(=O)Nc2c3c(nn2-c2cccc(C)c2C)CS(=O)(=O)C3)c1OC,8.3%,29.2%,35.6,1.0,-4.6%,-0.2
CN(C)/N=C/c1cn(-c2ccccc2)nc1-c1cccnc1,-9.1%,-3.5%,-11.3,-0.1,.,-1.0
COc1ccc(NC(=O)C2CCN(S(=O)(=O)c3cccc(-c4noc(C)n4)c3)CC2)cc1OC,.,.,-21.2,1.0,1.7%,.
COc1ccc(-c2noc(C3CC(=O)N(c4ccc5c(c4)OCCO5)C3)n2)c(OC)c1 (configuration not stated),.,.,17.8,1.0,1.2%,.
COCCn1c(SCC(=O)N2CCCc3ccccc32)nnc1-c1ccco1,5.1%,10.4%,-15.6,0.3,-4.5%,2.3

# Assay outcomes as filed in PubChem.
